Ba CapD inh – inhibitors of Bacillus anthracis CapD enzyme. purified CapD enzyme, fluorescence intensity read-out; active compounds read low; some hits fall short of the stated cut. z-score (test concentration not listed). actives 0.23% (n = 140,000). AID 492967;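 active = z-score under -4 in either of two replicates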;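 note: stock transfer was 100 nL into about 40 µL; score is relative to mean and spread of the plate; one replicate is shown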
AID504770 – growth inhibitors of E. coli YBA685 in a screen for V. cholerae RctB (chromosome II replication) inhibitors. E. coli YBA685 rctB-dependent plasmid, OD600 growth, 3 h; active compounds read low. z-score (no concentration beside the values). actives 0.27% (n = 130,000);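 active = z-score under -2 on both plates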;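 note: wells of about 30 µL received 100 nL stock; score is relative to mean and SD of the test wells; the first replicate is given; strong numbers were not always called active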
* hit, by the source's call; nt = not tested or not shown; & = joins results of further samples.

SMILES	Ba CapD inh	AID504770
CCCOC(=O)c1cccc(NC(=O)C23CCC(C)(C(=O)O2)C3(C)C)c1 (stereo unspecified)	0.135	0.9
O=C(Nc1ccccc1)C1CCN(S(=O)(=O)c2ccccc2)CC1	-0.015	-1.35
Cc1n[nH]c(C)c1SCC(=O)O	nt	0.05
CSc1nsc(NC(=O)OCc2ccc(Cl)cc2)n1	nt	-0.7
O=C(Nc1cccc(NC(=O)c2sc3ccccc3c2Cl)c1)c1cccc(Cl)c1	-0.02	nt
COc1ccc2c(c1)-c1c(ssc1=S)C(C)(C)N2CC(=O)Oc1ccccc1	0.665	nt
COc1ccc(OCc2nnc3n2CCC3)cc1	0.025	-0.85
ONC(=Nc1ccc(Cl)cc1Cl)c1cnccc1C(F)(F)F	-0.02	-0.7
CC(O)(P(=O)(O)O)P(=O)(O)O	0.54	nt
CC(C)CC(C(=O)N1CCOCC1)N1Cc2ccccc2C1=O (stereo unspecified)	-0.07	-0.4
CC(C)(C)c1cc2cc(NS(=O)(=O)c3ccc(Cl)cc3)ccc2[nH]1	-0.865	nt
CCOC(=O)c1ccc(N=C2SC(C(=O)Nc3ccc(C(=O)OCC)cc3)CC(=O)N2C)cc1 (stereo unspecified)	-0.415	nt
COC(=O)c1sccc1NC(=O)C1CCCN(S(=O)(=O)N2CCCCCC2)C1 (stereo unspecified)	0.8	-0.5
CCC(CC)c1nnc(NC(=O)COc2ccc3c(c2)OCO3)s1	nt	-0.6
CCc1ccc(N=c2ssc3c2-c2cc(C)ccc2NC3(C)C)cc1	-0.115	nt
O=C(On1c(-c2ccccc2)nc2ccccc2c1=O)c1ccc(F)cc1	-0.615	nt
O=C(Nc1nc(-c2cc3ccccc3oc2=O)cs1)c1cc(=O)c2ccccc2o1	0.24	nt
CC(O)CN=c1cc(-c2ccccc2)oc2ccc(Cl)cc12 (stereo unspecified)	-1.08	-0.4
Cc1sc2nc(SCC(=O)NCCO)nc(N)c2c1C	-1	2.3
CNC(=O)c1ccc(Cn2c(SCc3ccc(F)cc3)nc3ccncc32)cc1	0.915	0.7

4 of the compounds above, with each value named:
> CSc1nsc(NC(=O)OCc2ccc(Cl)cc2)n1
  Ba CapD inh = nt; AID504770 = -0.7

> O=C(Nc1cccc(NC(=O)c2sc3ccccc3c2Cl)c1)c1cccc(Cl)c1
  Ba CapD inh = -0.02; AID504770 = nt

> COc1ccc2c(c1)-c1c(ssc1=S)C(C)(C)N2CC(=O)Oc1ccccc1
  Ba CapD inh = 0.665; AID504770 = nt

> COc1ccc(OCc2nnc3n2CCC3)cc1
  Ba CapD inh = 0.025; AID504770 = -0.85

The list goes on:
SMILES	Ba CapD inh	AID504770
CCN(CC)CC(=O)Nc1ccc2c(c1)N(C(=O)CN(CC)CC)c1ccccc1CC2	5.93	nt
CCN1C(=O)C(=Cc2c(O)n(CC)c(=O)n(CC)c2=O)C(=O)N(CC)C1=O	-3.48	-0.45
CCN(CC)CC#Cc1cccc(C)c1	-0.89	-0.75
O=C(NC1CCCCC1)NC1(C(=O)N2CCC(O)CC2)CCCCC1	nt	-0.85
CCOC(=O)C1=C(C)N=C(SC)N(C)C1c1ccccc1 (stereo unspecified)	nt	1.45
Clc1ccc(-c2cn3ccccc3n2)cc1	44.3	0.3
CCOC(=O)C1=C(C)NC2=C(C(=O)C(C(=O)OCC)C(c3cccc(OC)c3)C2)C1c1cc(C)sc1C (stereo unspecified)	3.29	nt
CCOC(=O)c1c(NC(=O)C(C)Sc2nnc(CNC(=O)c3cccc(F)c3)n2C)sc2c1CCCCC2 (stereo unspecified)	-0.145	nt
CCCCCOCC1Cc2c(C)nn(C(N)=S)c2O1 (stereo unspecified)	-0.315	-0.25
COc1ccc(C=Nc2ccc(Br)cc2)cc1OC	-0.505	-1.2
Cc1cc(C(=O)CN2C(=O)C3CC=CCC3C2=O)c(C)n1-c1ccccc1 (stereo unspecified)	nt	1.6
FC(F)(F)c1cc(-c2cccs2)nc2c1cnn2C1CCCCC1	nt	1.25
CCCn1nc(C(=O)N2CCc3ccccc32)c2ccccc2c1=O	nt	-0.35
O=C1CSc2cc(S(=O)(=O)N3CCC(Cc4ccccc4)CC3)ccc2N1	-2.17	-0.3
CC(C)(C)S(=O)(=O)Cc1nc(-c2ccc3c(c2)OCCCO3)cs1	-0.825	-0.35
CC(C)n1c(O)c(N=NC(=O)C2CC2)c2ccccc21	nt	-0.05
Nc1cc(Cl)ccn1	nt	-1
CC1CC(C)CN(C(=O)c2ccc(C#N)cc2)C1 (stereo unspecified)	0.085	-0.65
O=C(/C=C/c1ccco1)OCC(=O)c1ccccc1	7.72	-0.75
O=C(C1CC1)N1CCc2cc(S(=O)(=O)N3CCCCC3)ccc21	0.445	-0.8

Compound profiles, from the list above.
CC(O)(P(=O)(O)O)P(=O)(O)O is listed as Ba CapD inh = 0.54; AID504770 = nt
Cc1cc(C(=O)CN2C(=O)C3CC=CCC3C2=O)c(C)n1-c1ccccc1 (stereo unspecified) is listed as Ba CapD inh = nt; AID504770 = 1.6

Further entries follow:
SMILES	Ba CapD inh	AID504770
CCOc1ccc(NS(=O)(=O)N(C)C)cc1	-0.275	-0.45
COC(=O)C(Cc1c[nH]c2ccccc12)NC(=O)c1ccc(OC)cc1 (stereo unspecified)	1.28	0.65
COc1ccc(NC(=O)N2Cc3ccccc3-n3cccc3C23CCN(C)CC3)cc1	0.33	-0.65
O=C(NN=C1CSc2sc(=S)sc2SC1)c1cccnc1	-0.305	nt
CSc1nnc(C2CCCN(C(=O)Nc3ccc(Cl)c(C(F)(F)F)c3)C2)n1C (stereo unspecified)	nt	-0.9
COc1cc(CCNS(=O)(=O)c2ccc(C#N)cc2)cc(OC)c1O	-0.645	nt
O=C(NCc1cccs1)C1CCCCC1	nt	-0.35
COC(=O)C(C(=O)NCC1CCCO1)C1CCCC1 (stereo unspecified)	-0.3	-1.35
CCc1ccccc1NC(=O)c1ccc(F)c(S(=O)(=O)NC2CCCCC2)c1	-1.21	nt
CN1C(=O)/C(=C/C2=Cc3ccccc3OC2)SC1=S	0.865	0.1
C1CCC2(C1)OCC(CN1CCOCC1)O2 (stereo unspecified)	0.165	-0.35
CCN1CCCC1CNCC(=O)Nc1ccc(C)c(Br)c1 (stereo unspecified)	nt	0.05
Cc1c2c(nc3nc4ccccc4n13)CC(C)(C)CC2=O	nt	-0.65
COc1ccc(C(=O)NCc2ccccc2)c(OC)n1	-2.43	-1.05
CCOC(=O)c1sc2ncnc(N)c2c1C	64.8	-0.2
O=[N+]([O-])c1ccc(NCCCCCO)nc1	-1.59	nt
c1ccc(-c2cn3nc(-c4ccccc4)c(-c4ccccc4)nc3n2)cc1	-1.58	0.8
CN1CCN(S(=O)(=O)c2cc3c(c([N+](=O)[O-])c2)-c2c(cc(S(=O)(=O)N4CCN(C)CC4)cc2[N+](=O)[O-])C3=O)CC1	0.02	nt
COc1ccc(C2CC(=O)NC(SCC(=O)Nc3cc(Cl)cc(Cl)c3)=C2C#N)cc1 (stereo unspecified)	0.395	nt
CC(=O)Nc1ccc(NC(=O)c2ccc(-c3ccc(Cl)cc3Cl)o2)cc1	0.42	-0.75

Look-ups from the list.
Result of `O=C(NCc1cccs1)C1CCCCC1` in AID504770: -0.35
Result of `CCOC(=O)c1sc2ncnc(N)c2c1C` in AID504770: -0.2
Result of `C1CCC2(C1)OCC(CN1CCOCC1)O2` (stereo unspecified) in Ba CapD inh: 0.165
Result of `CCc1ccccc1NC(=O)c1ccc(F)c(S(=O)(=O)NC2CCCCC2)c1` in Ba CapD inh: -1.21

Further structures follow:
SMILES	Ba CapD inh	AID504770
OCc1cccc2cccc(I)c12	0.3	nt
COC(=O)c1ccccc1NS(=O)(=O)c1cc2c3c(c1)C(C)C(=O)N3CCC2 (stereo unspecified)	nt	0.25
O=C1C(=Cc2ccc(-c3ccc(F)cc3F)o2)C(=O)c2ccccc21	-0.645	1.45
Nc1ccc(C(=O)Nc2nc3ccc(NC(=O)c4ccccc4)cc3s2)cc1	13.6	nt
O=C(NC1CCCC1)c1ccc(-n2cnc3cccnc32)cc1	0.45	0.65
CCOc1ccc(CCNS(=O)(=O)c2c(C)cc(C)cc2C)cc1OCC	0.14	-0.4
CCn1c(CC(=O)Nc2ccccc2C)nnc1SCC(=O)N1CCN(c2ccccc2)CC1	-0.75	1.05
COc1cc(/C=N/NC(=O)c2csc(CS(=O)(=O)Cc3ccco3)n2)ccc1OC(C)=O	-0.305	nt
Cc1nc(-c2ccccn2)nc(NCCc2ccccc2)c1Cl	0.455	0.7
CS(=O)(=O)N(Cc1ccccc1)Cc1ccccc1N1CCC(C(=O)O)CC1	-1.03	1.5
Oc1ccc2ccccc2c1CN1CCN(c2ccccn2)CC1	2.71	-0.2
O=C1CCCN2N=C(SCC(=O)c3ccc(Cl)cc3)SC2=N1	0.425	1.4
CCC(C)N=Cc1c(NCc2ccco2)nc2c(C)cccn2c1=O (stereo unspecified)	nt	0.35
Cc1nc(-c2cnccc2C(F)(F)F)sc1C(=O)NNC(=O)CC(c1ccccc1)(c1ccccc1)c1ccccc1	-0.15	nt
O=S1(=O)C=C(SCc2cccc(C(F)(F)F)c2)Nc2ccccc21	-0.99	nt
Cc1ccc(S(=O)(=O)c2cc(O)ccc2O)cc1C	0.45	1.35
CSCCNC(=O)Nc1c(-c2c(Cl)cccc2Cl)noc1C	-0.165	-1.05
O=C(C1c2ccccc2Oc2ccccc21)N1CCC(c2ccccc2)C1 (stereo unspecified)	-1.14	0.75
CNC(=O)O/N=C(\N)c1c(-c2c(F)cccc2Cl)noc1C	0.09	nt
CC(N)c1ccc(S(N)(=O)=O)cc1 (stereo unspecified)	nt	-0.15
Cn1c(=O)cc(OCC(=O)NCCCN2CCCCCC2)c2ccccc21	0.7	0.35
O=C(OCc1ccc(F)cc1Cl)N1CCN(c2nc(-c3ccccc3)ns2)CC1	-0.21	nt
CCCC(=O)Nc1c2c(nn1-c1cccc(Cl)c1)CS(=O)(=O)C2	-0.135	-0.1
CCOC(=O)C1=C(O)/C(=C\c2cc(OC)c(OC)c(OC)c2)SC1=Nc1cccc(Cl)c1	0.12	nt
CN(c1ccccc1)S(=O)(=O)c1cccc(C(=O)N2CCCCCC2)c1	0.055	0.85
O=c1cc(O)nc(-c2ccccc2)[nH]1	-0.02	1.65&-0.5
CCCc1c(C(=O)Nc2ccc(F)cc2)cnn1-c1ccccc1	-0.075	0.1
CCc1cccc(C)c1NC(=O)COC(=O)C1CC(=O)N(c2ccc(Br)cc2)C1 (stereo unspecified)	-0.605	-0.9
O=c1oc2cc(O)ccc2c2c1CCC2	64.9	-0.75
Cc1cccc(-c2nc3sc4c(c3c(=O)o2)CCCCC4)c1	1.1	nt
CN(C)c1ccc(C2(C)Oc3ccccc3C(=O)N2c2ccccc2)cc1 (stereo unspecified)	nt	-0.1
CCCn1c(C)cc(C(=O)CSc2nnc(-c3cccc(S(=O)(=O)N(CC)CC)c3)o2)c1C	nt	-1.45
O=C(CCn1c(=O)oc2ccccc21)N1CCN(Cc2ccc3c(c2)OCO3)CC1	nt	-0.55
COc1ccc(C[C@H](N)C(=O)N[C@@H]2[C@@H](CO)OC(n3cnc4c(N(C)C)ncnc43)[C@@H]2O)cc1 (stereo partly specified)	0.055	0.1
Cn1nc(OC(C)(C)C(=O)NC(C)(C)C)cc1C(F)(F)F	-0.81	0.15
Cc1ccccc1CN1CCN(C(=O)c2ccco2)CC1	0.855	-0.05
Cc1c(Br)sc2sc(C(=O)/C=C/N(C)C)c(C)c12	-0.08	nt
CCOC(=O)C(C)Oc1ccc2c(=O)c(-c3ccc4c(c3)OCCCO4)c(C)oc2c1 (stereo unspecified)	-0.125	nt
CC1=C(C#N)C(C)(C)C(C#N)=C(C)N1	6.48	-0.35
CC(C)c1nc2ccccc2c2c1C(=O)N(CCN1CCOCC1)C2=O	-0.415	nt

2 entries from above, in markdown:
| mol | Ba CapD inh | AID504770 |
| --- | --- | --- |
| Cc1ccccc1CN1CCN(C(=O)c2ccco2)CC1 | 0.855 | -0.05 |
| Cc1c(Br)sc2sc(C(=O)/C=C/N(C)C)c(C)c12 | -0.08 | nt |

Next part
SMILES	Ba CapD inh	AID504770
COC(=O)c1ccc(Oc2ncnc3sc(C)c(C)c23)cc1	-0.21	-0.2
CC(C)(C)N1C(=O)c2ccc(-c3nc4ccccc4o3)cc2C1=O	10.1	-0.4
COc1ccc(Cl)c(N2CC(c3nc4ccccc4n3C(C)C)CC2=O)c1 (stereo unspecified)	nt	-0.2
Cc1cccc(NC(=O)C2c3ccccc3Oc3ccccc32)c1	0.35	0.3
O=C(O)CCNC(=O)c1ccco1	-0.43	0.95
CN(C)C=NC(=O)c1ccc(Oc2ncc(C(F)(F)F)cc2Cl)cc1	-0.275	nt
CCc1cc(=O)[nH]c(SC)n1	nt	0.45
COc1cccc(OC)c1OCC(O)CN1CCN(C)CC1 (stereo unspecified)	0.415	-0.15
O=c1[nH]cnc2scc(-c3ccc4ccccc4c3)c12	0.375	-0.45
Cc1nc2ccc(C(=O)N3CCN(Cc4ccccc4)CC3)cc2[nH]1	nt	1.3
COc1ccc(C2C=C(Nc3ccc(C)cc3)C(=O)N2c2ccc(C)cc2)cc1 (stereo unspecified)	0.85	nt
CNc1ccc(C(=O)CC(O)CCC(C)C2OC(=O)CC(O)CC(=O)CC(O)CC(O)CC(O)CC(O)CC3(O)CC(O)C(C(=O)OC)C(CC(O[C@@H]4O[C@H](C)[C@@H](O)[C@H](N)[C@@H]4O)/C=C/C=C/C=C/C=C/C=C/C=C/C=C/C2C)O3)cc1 (stereo partly specified)	nt	0.3
N#CCCn1cc(C(N)=O)c(-c2ccccc2)n1	nt	1.3
CSc1ccc(/C=C2/NC(=O)NC2=O)cc1	13.3	-0.45
CC(CC(=O)Nc1cccc(Cl)c1)N1CCCC1 (stereo unspecified)	0.105	0.4
CC(C)N1CCN(S(=O)(=O)c2ccc(F)cc2F)CC1	-0.245	nt
O=C(Nc1nc(CN2CCCCC2)cs1)c1ccc(-n2cccn2)cc1	nt	-0.65
COc1ccc(C(O)c2nccn2Cc2ccccc2)cc1OC (stereo unspecified)	0.06	-1.1
CCCCNC(=O)Cn1c(-c2ccc(OC)cc2)noc1=O	nt	0.4
Clc1ccccc1CSC1=NCCN1	0.1	nt
